Screening data as filed in PubChem BioAssay.
Rango dissoc inh = qHTS Assay for Inhibitors of RanGTP induced Rango (Ran-regulated importin-beta cargo) - Importin beta complex dissociation; Snurportin-1 (Homo sapiens) + GTP-binding nuclear protein Ran (Homo sapiens) + Importin …; Biochemical FRET Rango-importin beta, RanGTP-induced dissociation; Potency, µM (highest dose often 46.1 µM), without a hit: at the top dose activity change, negative = inhibition; 0.071% of 340,000 active; active means falling FRET ratio curve, often poorly fitted, with flat reads before Ran was added; inconclusive means other falling curves, or compound fluorescence or quenching; inactive means flat or rising ratio curve;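 note: potency is the fitted concentration of half-maximal effect; % of control where 0% means no effect; nearly all actives have a fitted effect of over 45% in size; -100% = wells without RanGTP and RCC1; the record marks most hits as doubtful in a second field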
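Compounds preincubate 5 min with complex of recombinant Rango and importin beta in PBS with 1 mM DTT. Ran (0.6 uM) loaded with 2 mM GTP plus 0.2 uM RCC1 starts dissociation; FRET is recorded 45 min later.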
GLA inh pH 4.5 = qHTS Assay for Inhibitors of Human alpha-Galactosidase at pH 4.5. 230,000 tested, under 10 active. purified enzyme, 4-MU-alpha-Gal fluorescence, pH 4.5. activity change, negative = inhibition, % at 105 µM; inconclusive = small, poorly fitted or top-dose-only inhibition, or a rising curve; inactive = flat fitted curve, though single readings scatter; no compound was filed as active;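 note: 0% = full activity with enzyme and -100% = basal without enzyme; dose as in the result columns while the protocol names 77 µM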
Target sequence (P06280 whole entry, looked up): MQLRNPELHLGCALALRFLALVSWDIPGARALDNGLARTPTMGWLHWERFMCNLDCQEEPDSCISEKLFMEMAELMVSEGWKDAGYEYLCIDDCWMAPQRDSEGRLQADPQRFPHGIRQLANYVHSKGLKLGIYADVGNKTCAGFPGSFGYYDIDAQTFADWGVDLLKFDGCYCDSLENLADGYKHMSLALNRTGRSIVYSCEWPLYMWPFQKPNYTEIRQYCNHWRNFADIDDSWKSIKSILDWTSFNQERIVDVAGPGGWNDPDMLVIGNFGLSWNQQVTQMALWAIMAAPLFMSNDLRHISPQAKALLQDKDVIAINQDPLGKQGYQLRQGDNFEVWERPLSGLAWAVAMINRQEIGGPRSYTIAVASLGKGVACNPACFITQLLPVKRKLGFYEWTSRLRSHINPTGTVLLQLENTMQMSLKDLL
miR-21 FLuc = qHTS Assay for Modulators of miRNAs and/orActivators of miR-21; HeLa miR-21 FLuc reporter, luciferase, 48 h; Potency, µM (doses to about 38.3 µM), for inactives: at the highest dose reporter change, positive = more light; 340,000 tested, under 10 active; AID 2288, 2010; active = well fitted rising curve with a large enough effect; inconclusive = small, poorly fitted or top-dose-only effect; inactive = no such curve, though single readings can be large or run the other way;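 note: % of control where 0% means no effect; miR-21 action dims this reporter so a rising signal means less miR-21 action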
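Luminescence from a firefly luciferase reporter carrying a miR-21 binding site downstream, stably expressed under a CMV promoter in HeLa cells that make miR-21 endogenously, reports miRNA modulation after 48 h compound exposure up to approximately 40uM final.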
Rango-impB inh = qHTS Assay for Inhibitors of Rango (Ran-regulated importin-beta cargo) - Importin beta complex formation | Importin subunit beta-1 (Homo sapiens), Q14974 | Rango CFP/YFP FRET sensor + importin beta, 45 min | Potency, µM (doses to about 92.2 µM), without a hit: at the highest dose inhibition of complex formation | 0.031% of 340,000 active | AID 540263, 2011; active = rising FRET ratio curve, often small or poorly fitted; inconclusive = mostly compound fluorescence or quenching in the first reads; inactive = flat curves in all reads;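 note: potency is the fitted concentration of half-maximal effect; 0% = DMSO wells and 100% = buffer wells lacking importin beta; nearly all actives have a fitted effect of over 15% in size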
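Inhibition scored from the CFP 486 nm/YFP 530 nm FRET ratio 45 min after adding 0.125 microM importin beta to 50 nM Rango biosensor preincubated 5 min with compound (room temperature, PBS with DTT, Tween-20, BSA). No-importin wells as positive control.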
* = called active by the depositor; ? = inconclusive; · = no result given; [ ] = another dose, or the depositor's remark.

Every second line gives: Rango dissoc inh	GLA inh pH 4.5	miR-21 FLuc	Rango-impB inh
- CSc1sc(C)cc1/C=N/O
    0.1%	2.4	-12.9%	4.2%
- CCOc1ccc(-c2nc(C#N)c(NC3CC3)o2)cc1
    11.6%	7.2	-52.3%	-1.8%
- CC(C)(C)N=C1SCC(C)(/C=N/O)S1 (stereo unspecified)
    11.5%	-6.2	-5.3%	2.9%
- COc1ccc(CNC(=O)C(C)Sc2ccc(S(=O)(=O)N3CCOCC3)cn2)cc1 (stereo unspecified)
    9.0%	·	·	-0.2%
- O=C(CSc1ncn[nH]1)N/N=C/c1ccc(C(F)(F)F)cc1
    -2.9%	·	-8.5%	1.6%
- CCCNc1ccc(C(=O)OCC)cc1[N+](=O)[O-]
    -9.6%	2.6	-67.1%	?
- Cc1ccc2[nH]c(C(=O)N3CCC(C(N)=O)CC3)cc2c1
    -6.8%	·	-11.8%	4.6%
- CC(C)(C)NC(=O)CN(Cc1cccs1)C(=O)c1csnn1
    -6.0%	7.0	-5.4%	-0.4%
- O=C(NNc1ccccc1Br)C(O)(c1cccc(C(F)(F)F)c1)c1cccc(C(F)(F)F)c1
    -10.2%	-8.0	?	3.0%
- O=C(COc1ccccc1)NC1CCSc2ccccc21 (stereo unspecified)
    -4.0%	·	·	-2.1%
- COc1ccc(-n2ncc3c(SCC(=O)NNC(C)=O)ncnc32)cc1
    5.7%	·	-37.9%	2.7%
- Cc1cc(=O)[nH]c(NCCO)n1
    2.4%	-0.1	-0.9%	-3.1%
- O=C(N/N=C/c1sc(=O)n(Cc2ccc(Br)cc2)c1Cl)c1ccco1
    -0.6%	·	-1.6%	-0.7%
- COc1ccccc1C(=O)Nc1nnc(-c2ccco2)s1
    -10.1%	0.3	-59.3%	-0.5%
- O=C(NC1CCN(Cc2ccccc2)CC1)C12CC3CC(CC(C3)C1)C2
    -9.7%	-10.5	-10.2%	2.3%
- COc1ccc(C(=O)c2ccc(OC)c(Br)c2)cc1Br
    0.3%	-11.5	-5.6%	0.4%
- Cc1ccnc(NC(=O)c2cccc(S(=O)(=O)N3CCCC3)c2)c1
    0.1%	·	-33.2%	0.1%
- N#Cc1c(SC(C(=O)O)c2ccccc2)nc2c(c1-c1cccs1)CCCC2 (stereo unspecified)
    -5.2%	-5.3	-0.1%	0.3%
- CC(Nc1cc(=O)n(C)c(=O)[nH]1)c1ccccc1 (stereo unspecified)
    -0.7%	-0.7	-5.1%	-0.2%
- CCOc1ccc(NC(=O)/C(C#N)=C/c2ccc(N3CCCC3)c(C)c2)cc1
    ?	8.6	-1.4%	?
- Cc1ccc(C)c(NS(=O)(=O)c2c(C)ccc3nsnc23)c1
    -0.1%	-1.7	-8.9%	1.0%
- c1ccc2c(N3CCCCC3)nc(N3CCCC3)nc2c1
    0.5%	12.4	22.1%	1.1%
- Cc1ccc(Cn2c(NCCc3ccccc3)nc3c2c(=O)n(C)c(=O)n3C)cc1
    0.9%	-10.0	-7.0%	-8.0%
- CCN1CC(CN(C)Cc2cn(-c3ccc(C)cc3)nc2-c2cccc(C)c2)CC1=O (stereo unspecified)
    4.6%	-8.8	-1.3%	6.3%
- O=C(CC(=O)c1cc(Cl)ccc1O)c1ccccc1
    0.4%	-7.0	-14.6%	3.6%
- CC(C)C1CC(CCNCc2ccc(N(C)C)cc2)(c2ccccc2)CCO1 (stereo unspecified)
    1.6%	-8.7	6.1%	-4.1%
- COC(=O)C1CN(C(=O)COc2ccc(C)cc2)c2ccccc2O1 (stereo unspecified)
    -8.5%	·	-2.7%	-2.4%
- CCC(=O)N(CC(=O)Nc1sc(C)c(C)c1C(N)=O)C1CCCCC1
    -6.6%	2.3	-6.4%	0.4%
- COc1ccc(C(CNC(=O)CNC(=O)c2cc(OC)c(OC)c(OC)c2)N2CCOCC2)cc1 (stereo unspecified)
    20.4%	·	·	-4.1%
- Nc1nc(Sc2c([N+](=O)[O-])cc(C(F)(F)F)cc2[N+](=O)[O-])n[nH]1
    -8.0%	-1.7	?	-0.4%

Structural class: those above containing a tert-butyl group (2)
Every second line gives: Rango dissoc inh	GLA inh pH 4.5	miR-21 FLuc	Rango-impB inh
- CC(C)(C)N=C1SCC(C)(/C=N/O)S1 (stereo unspecified)
    11.5%	-6.2	-5.3%	2.9%
- CC(C)(C)NC(=O)CN(Cc1cccs1)C(=O)c1csnn1
    -6.0%	7.0	-5.4%	-0.4%

Further entries:
Every second line gives: Rango dissoc inh	GLA inh pH 4.5	miR-21 FLuc	Rango-impB inh
- CCc1cccc2c(=O)c(C(=O)N3CCCCCC3)c[nH]c12
    1.2%	-13.1	-17.2%	-1.2%
- CC[C@]12c3[nH]c4ccc(Cl)cc4c3CCN1C(=O)[C@@H](CC(=O)NCC13CC4CC(CC(C4)C1)C3)C[C@@H]2C(=O)N1CCN(C(=O)C2CC2)CC1
    1.2%	·	·	0.8%
- Cc1cc(C)c(S(C)(=O)=O)c(Oc2ccc(C(C)(C)C)cc2)n1
    5.0%	-4.6	4.7%	-9.1%
- COc1ccc(CNC(=O)C2CC(=O)N(C3CCCCC3)C2)cc1 (stereo unspecified)
    4.7%	·	-1.1%	-3.1%
- Cc1[nH][nH]c(=O)c1C=NCc1cccc(C(F)(F)F)c1
    -5.9%	1.6	1.0%	-0.7%
- NC(=O)NC(c1ccccc1)c1ccccc1F (stereo unspecified)
    -18.1%	7.3	-0.2%	4.9%
- O=c1nc2ccccn2c2ccc(S(=O)(=O)N3CCCCC3)cc12
    -3.6%	·	-0.4%	1.5%
- COC(=O)c1oc2nc(C)cc(C)c2c1N
    -12.5%	1.5	-3.0%	-2.9%
- Cc1ccccc1NS(=O)(=O)c1ccc(C(=O)NCC2CCCO2)cc1 (stereo unspecified)
    0.7%	·	·	1.7%
- Cc1cc(C)cc(NC(=S)Nc2cccc3ccccc23)c1
    0.5%	·	-10.8%	-1.5%
- COc1ccc(/C=N/Nc2ncnc(Cl)c2N)cc1OC
    15.0%	0.1	-33.1%	0.8%
- Cc1cc2occ(CC(=O)N(C)CC(=O)Nc3ccc(F)cc3)c2cc1C
    0.6%	·	·	0.4%
- COc1ccc(-n2nc(C(=O)NCC(=O)N3CCCC(C)C3)c3ccccc3c2=O)cc1 (stereo unspecified)
    -11.9%	·	1.6%	1.2%
- CC(C)NC(=O)Cn1c(SCC(=O)N2CCCc3ccccc32)nc2ccccc21
    -11.8%	-8.4	-6.5%	-2.0%
- C=CCOC(=O)CCCCCCCC
    -5.9%	·	·	-0.3%
- O=C(CSc1nnc(C2CC2)n1C1CC1)c1ccccc1F
    -6.3%	·	·	2.1%
- Cc1nnc(N(Cc2ccco2)C(=O)c2cccc(C#N)c2)s1
    6.3%	1.0	-3.6%	-5.8%
- COC(=O)c1ccc(OCc2nc(N)nc(N3CCOCC3)n2)cc1
    6.5%	-4.8	-3.9%	-1.3%
- Cc1cccc(CCN2C(Nc3ccccc3)=NC[C@@H]2C)c1
    15.9%	·	·	2.0%
- CCOc1ccc(N(Cc2ccccc2F)C2=NC3CS(=O)(=O)CC3S2)cc1 (stereo unspecified)
    -2.7%	-13.1	4.3%	-1.5%
- COc1ccc(Br)cc1C(=O)Nc1ccc(O)cc1
    18.1%	-3.0	-27.7%	0.1%
- CCc1ccccc1NC(=O)CC1CS(=O)(=O)CC1CC(=O)Nc1ccccc1CC (stereo unspecified)
    0.9%	7.0	-3.9%	-1.5%
- CNc1nc(-c2ccc3c(c2)CCN3C(=O)c2ccccc2F)cs1
    0.4%	3.7	-46.1%	2.3%
- COc1ccc(C(C)=O)cc1Cn1nc(C)c([N+](=O)[O-])c1C
    -0.7%	0.9	-8.2%	0.7%
- CCOc1ccc(CNC(=O)c2ccc(NC(=O)C3=CSCCO3)cc2)cc1
    -10.7%	·	-14.9%	-1.6%
- COc1ccccc1N(C)S(=O)(=O)c1ccc(C(=O)NC(C)(C)C)cc1
    -8.8%	-2.5	-6.5%	-0.3%
- Cc1c(N=Nc2ccc(O)cc2)c(=O)n(-c2ccccc2)n1C
    11.4%	4.6	-22.7%	5.6%
- O=C(c1cccc(Cl)c1)N1CCC(N2CCC(C(=O)N3CCCC3)CC2)CC1
    -7.8%	·	-0.5%	-1.7%
- CC(C)Cn1c(N)c(C(=O)COC(=O)CCc2nc3ccccc3s2)c(=O)n(C)c1=O
    -7.0%	-14.5[21.1 µM]	10.1%	3.6%
- O=C(COC(=O)/C=C/c1ccc(C(F)(F)F)cc1)NC1CC1
    1.5%	·	·	4.4%

(next part)
Letter code: A = Rango dissoc inh; B = GLA inh pH 4.5; C = miR-21 FLuc; D = Rango-impB inh
Structure: CSc1nc(NCc2ccco2)c2ccccc2n1
  A = 5.6%; B = 3.8; C = -11.9%; D = 0.2%
Structure: COc1cc(C(=O)NCCc2ccc(S(N)(=O)=O)cc2)cc(OC)c1OC
  A = -0.1%; B = 3.1; C = 1.5%; D = -2.1%
Structure: CCN(CC)S(=O)(=O)c1cc(OC)c(C)cc1C
  A = -5.8%; B = -3.4; C = 1.8%; D = 0.8%
Structure: Cc1cc(O)ccc1NC(=O)c1ccccc1
  A = 5.9%; B = -2.6; C = -4.7%; D = 0.5%
Structure: CC(C)(C)NC(=O)C(c1ccncc1)N(C(=O)C1CSC(=O)C1)c1ccccc1 (stereo unspecified)
  A = -18.9%; B = -3.2; C = -2.4%; D = -1.4%
Structure: CCCCNS(=O)(=O)c1ccc(OC)c(Cl)c1Cl
  A = 13.1%; B = -9.6; C = -6.3%; D = 0.3%
Structure: CC(C)(C)NC(=O)c1oc2ccccc2c1COc1ccccc1
  A = 20.4%; B = 4.3; C = -15.4%; D = -0.6%
Structure: Cc1cc(C)c(C#N)c(Sc2nnnn2-c2ccccc2)n1
  A = 0.1%; B = 6.6; C = -2.1%; D = 0.3%
Structure: COc1ccc(NCC(=O)N/N=C/C2CCCCC2)cc1
  A = 15.3%; B = -0.9; C = -7.4%; D = -13.6%
Structure: CC(C)OCCCNC(=O)c1cn(C)c2ccc(S(=O)(=O)N3CCCC3)cc2c1=O
  A = -0.8%; B = ·; C = -1.5%; D = 5.9%

Among those listed so far, 7 contain a furan ring, fused or not:
Letter code: A = Rango dissoc inh; B = GLA inh pH 4.5; C = miR-21 FLuc; D = Rango-impB inh
Structure: O=C(N/N=C/c1sc(=O)n(Cc2ccc(Br)cc2)c1Cl)c1ccco1
  A = -0.6%; B = ·; C = -1.6%; D = -0.7%
Structure: COc1ccccc1C(=O)Nc1nnc(-c2ccco2)s1
  A = -10.1%; B = 0.3; C = -59.3%; D = -0.5%
Structure: COC(=O)c1oc2nc(C)cc(C)c2c1N
  A = -12.5%; B = 1.5; C = -3.0%; D = -2.9%
Structure: Cc1cc2occ(CC(=O)N(C)CC(=O)Nc3ccc(F)cc3)c2cc1C
  A = 0.6%; B = ·; C = ·; D = 0.4%
Structure: Cc1nnc(N(Cc2ccco2)C(=O)c2cccc(C#N)c2)s1
  A = 6.3%; B = 1.0; C = -3.6%; D = -5.8%
Structure: CSc1nc(NCc2ccco2)c2ccccc2n1
  A = 5.6%; B = 3.8; C = -11.9%; D = 0.2%
Structure: CC(C)(C)NC(=O)c1oc2ccccc2c1COc1ccccc1
  A = 20.4%; B = 4.3; C = -15.4%; D = -0.6%

Going on with the list:
Letter code: A = Rango dissoc inh; B = GLA inh pH 4.5; C = miR-21 FLuc; D = Rango-impB inh
Structure: N#Cc1c(N2C(=O)Nc3ccccc3N2O)sc2c1CCCC2
  A = 9.9%; B = -14.4; C = -8.6%; D = -1.5%
Structure: COc1ccccc1-c1cccc([C@@H]2C[C@H]3[C@H](CON3C)CN2C)c1
  A = 1.2%; B = ·; C = ·; D = -0.3%
Structure: O=C(c1cccc(S(=O)(=O)N2CCOCC2)c1)N1CCN(c2ccc(F)cc2)CC1
  A = 0.2%; B = -5.7; C = -1.0%; D = 0.3%
Structure: COc1ccc(-c2cc3nc(C)c(CCC(=O)N4CCN(c5ccccn5)CC4)c(C)n3n2)c(OC)c1
  A = -20.5%; B = -15.2[21.1 µM]; C = 0.6%; D = 2.5%

Only part of the results is shown, so the mix of outcomes need not match the whole.
